Screening results as filed in PubChem.
Sfp inh = inhibitors of Bacillus subtilis Sfp phosphopantetheinyl transferase. Q9F4F7. Biochemical Sfp PPTase activity, qHTS. Potency, µM, inactives show max response, negative = inhibition, hits mostly inhibitors. hit rate 3.5% among 310,000. AID 1490; active = well fitted inhibition curve with a large enough effect; inconclusive = small, poorly fitted or top-dose-only effect, or another doubt; inactive = no such curve, though single readings can be large or run the other way;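 also: the enzyme is Sfp with the accession as filed and its product quenches rhodamine fluorescence; potency is read from the fitted curve at half-maximal effect; 0% = enzyme reaction without inhibitor and -100% = no enzyme wells; top concentration of the series not given in the record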
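Reaction rates are the 30-min fluorescence difference (ex 525, em 598 nm) in wells containing 15 nM Sfp, 5 uM rhodamine-CoA and 12.5 uM BHQ-2-YbbR at pH 7.6 with 10 mM MgCl2.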
ClpP mod = qHTS Assay for Activators of ClpP. purified B. subtilis ClpP, FRET peptide cleavage, 20 min. Potency, µM (doses to about 57.5 µM), without a hit: at the highest dose activity change, negative = active. ATP-dependent Clp protease proteolytic subunit (Bacillus subtilis (strain 168)), P80244. hit rate 1.9% among 340,000; active = well fitted falling curve with a large enough effect; inconclusive = small, poorly fitted or top-dose-only effect; inactive = no such curve, though single readings can be large or run the other way; also: potency is read from the fitted curve at half-maximal effect; the source files actives as falling curves though it sought activators and does not explain the sign; nearly all actives have a fitted effect of over 65% in size; many hits overshoot -100%
Target sequence (P80244 whole entry, looked up): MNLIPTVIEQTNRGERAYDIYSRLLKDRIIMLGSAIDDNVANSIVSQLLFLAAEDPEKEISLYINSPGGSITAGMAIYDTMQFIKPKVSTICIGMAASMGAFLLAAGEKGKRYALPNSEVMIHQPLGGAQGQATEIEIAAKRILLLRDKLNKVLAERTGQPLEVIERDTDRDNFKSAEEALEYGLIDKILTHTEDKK
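Purified B. subtilis ClpP, 10 microg/mL final in Tris/HCl pH8 with KCl, BSA, glycerol and Tween-20, cleaved an Abz/nitrotyrosine-quenched decapeptide. Fluorescence (ex 320, em 430) was read at 0 and 20 min at room temperature. Delta was normalized to 5.8 microM ADEP and DMSO/no-enzyme controls.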
Menin MLL FP FL = menin-MLL binding inhibition, fluorescein peptide; Fluorescence polarization, fluorescein-MLL peptide displacement from menin; FP activity change, % at 61.4 µM; 290,000 tested, under 10 active; inconclusive = falling polarisation curve, or a change in total fluorescence; inactive = total fluorescence flat and polarisation flat or rising; no compound was filed as active; the % refers to the polarisation; negative = inhibition;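 also: % of control where 0% means no effect; inhibitors lower the polarisation; unlabelled MLL peptide was the positive control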
TRPV1 PAM = potentiators of human vanilloid receptor 1 (TRPV1); hit rate 0.02% among 320,000; AID 540277; TRPV1-expressing cells, Fluo-8 calcium influx, capsaicin EC20 potentiation; host cell line not named in the record; control for the full effect not named in the record; potentiation, % at 8.33 µM; active means potentiation above 80%; inconclusive means 30% to 80%; inactive means below 30%; also: 0% is about no effect
Target sequence (Q8NER1 whole entry, looked up): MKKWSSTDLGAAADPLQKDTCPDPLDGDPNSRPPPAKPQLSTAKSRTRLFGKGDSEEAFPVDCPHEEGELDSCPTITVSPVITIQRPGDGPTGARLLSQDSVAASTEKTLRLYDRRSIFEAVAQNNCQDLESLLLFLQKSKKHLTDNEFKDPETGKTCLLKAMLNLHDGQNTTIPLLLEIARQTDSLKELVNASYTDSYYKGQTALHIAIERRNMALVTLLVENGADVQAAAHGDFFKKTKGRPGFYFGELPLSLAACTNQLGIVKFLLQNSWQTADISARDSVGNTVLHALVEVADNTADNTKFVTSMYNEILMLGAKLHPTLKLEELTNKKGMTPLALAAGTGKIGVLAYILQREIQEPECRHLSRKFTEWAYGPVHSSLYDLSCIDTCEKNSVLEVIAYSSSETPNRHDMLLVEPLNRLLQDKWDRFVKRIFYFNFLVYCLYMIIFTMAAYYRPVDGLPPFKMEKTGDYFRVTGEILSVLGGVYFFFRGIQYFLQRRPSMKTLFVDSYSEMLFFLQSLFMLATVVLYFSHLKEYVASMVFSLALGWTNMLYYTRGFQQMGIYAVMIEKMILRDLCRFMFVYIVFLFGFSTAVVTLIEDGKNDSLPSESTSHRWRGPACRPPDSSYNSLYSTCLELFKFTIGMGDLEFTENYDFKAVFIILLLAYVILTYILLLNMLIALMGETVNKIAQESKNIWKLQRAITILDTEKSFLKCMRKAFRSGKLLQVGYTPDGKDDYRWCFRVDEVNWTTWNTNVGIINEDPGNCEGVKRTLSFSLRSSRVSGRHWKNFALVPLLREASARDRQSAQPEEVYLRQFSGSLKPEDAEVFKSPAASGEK
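Fluo-8 calcium influx in TRPV1-expressing cells, kinetic read (ex 480/em 520 nm). Compound added and read 3 min for agonist activity, followed by capsaicin at EC20 final and 2 min further read for enhancement.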
gsp antagonist = antagonists of gsp mutant (McCune-Albright syndrome); hit rate 0.4% among 340,000; Potency, µM (titrated, usually from 76.9 µM), for inactives: at the highest dose activity change, negative = inhibition, most hits filed as inhibitors; gsp-mutant cells, cAMP HTRF, 30 min; control for the full effect not named in the record; active = falling curve of any shape with a large fitted effect; inconclusive = falling curve, mostly with a smaller effect; inactive = flat or rising curve; cell line not stated here;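 also: intracellular cAMP measured with PDE inhibitor Ro 20-1724 present during compound exposure; potency is read from the fitted curve at half-maximal effect; % is scaled to controls: 0 for no effect and ±100 for the full control effect; nearly all actives have a fitted effect of over 65% in size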
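Cells, 2000/well, grown 16–24 h in DMEM 10% FBS with 0.5 mg/ml G418, then compounds plus […] (300 uM addition stock), 30 min at 37C. cAMP read by HTRF (cAMP-d2 and anti-cAMP antibody-K in lysis buffer) after 30 min RT.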
CtBP-E1A inh = CtBP/E1A binding inhibition; AlphaScreen GST-E1A/His-CtBP binding, 1536-well; stronger effect = lower value; control for the full effect not named in the record; activity change, % (concentration not given with the values); hit rate 0.49% among 340,000; in the data active means activity change below about -65%; inconclusive means about -30% to -65%; inactive means above about -30%; also: % is scaled to controls: 0 for no effect and ±100 for the full control effect
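AlphaScreen with 125 nM GST-E1A and 125 nM His-CtBP (5X stocks) in Tris pH 8.0, 300 mM NaCl, BSA, Tween 20, TCEP. Compounds preincubated 2 h at 37 deg C, then glutathione donor/nickel acceptor beads added for 1 h at 37 deg C in dark.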
gsp agonist = agonists of gsp mutant (McCune-Albright syndrome); gsp mutant cells, cAMP HTRF, 30 min; control for the full effect not named in the record; Potency, µM (doses to about 76.9 µM), inactives show at the top dose activation (cAMP increase), hits mostly activators; hit rate 0.13% among 340,000; AID 624287; active = well fitted activation curve with a large enough effect; inconclusive = small, poorly fitted or top-dose-only effect, or another doubt; inactive = no such curve, though single readings can be large or run the other way; cell line not stated here;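 also: phosphodiesterase inhibitor Ro 20-1724 added with compounds to block cAMP breakdown; potency is read from the fitted curve at half-maximal effect; nearly all actives have a fitted effect of over 60% in size; about a fifth of the inactives were tested at one dose only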
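Cells in DMEM/10% FBS with G418 were pretreated with compounds in DMSO plus […] (300 uM stock) for 30 min at 37C. cAMP was measured by HTRF (cAMP-d2 plus anti-cAMP antibody-K) after 30 min at room temperature.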
* hit, by the source's call; & = joins results of further samples; [ ] = another dose, or the depositor's remark. Some of the compounds tested. The share of hits here may be higher or lower than overall.

How did COC(=O)C(Cc1ccc(N(CCCl)CCCl)cc1)N=Cc1ccccc1O (stereo unspecified) do in these assays?
Sfp inh: 9.8%; Menin MLL FP FL: -3.1; TRPV1 PAM: 1.9; gsp antagonist: -10.7%; CtBP-E1A inh: 1.2; gsp agonist: 9.0%

How did ClCCN(CCCl)c1ccc(-n2cnc3c(Cl)ncnc32)cc1 do in these assays?
gsp antagonist: -28.3%; CtBP-E1A inh: -0.6; gsp agonist: 9.4%

Results for O=c1[nH]c(=O)n(-c2ccc(Cl)cc2)c(O)c1C=Nc1ccc(S(=O)(=O)Nc2nccs2)cc1 ?
Sfp inh: -21.3%; ClpP mod: -2.1%; Menin MLL FP FL: 17.9; TRPV1 PAM: -0.6; gsp antagonist: 7.6%; CtBP-E1A inh: 7.2; gsp agonist: -7.1%

What do the screens show for `O=C(COc1ccccc1)N1CCN(CC(O)COc2ccccc2)CC1` (stereo unspecified)?
Sfp inh: 3.4%; ClpP mod: -1.3%; Menin MLL FP FL: -1.1; TRPV1 PAM: -2.7; gsp antagonist: 14.5%; CtBP-E1A inh: 1.3; gsp agonist: -16.4%

Results for Cc1cccn2c(=O)c3c(nc12)N1CCCCCC1C1(C3)C(=O)N(C)C(=O)N(C)C1=O (stereo unspecified) ?
Sfp inh: 1.6%; ClpP mod: -0.7%; Menin MLL FP FL: 5.5; TRPV1 PAM: -8.1; gsp antagonist: 3.9%; CtBP-E1A inh: -24.7; gsp agonist: 14.3%[15.4 µM]

What do the screens show for `CC(C)(O)/C=C/C(=O)C(C)(O)C1C(O)CC2(C)C3CC=C4C(C=C(O)C(=O)C4(C)C)C3(C)C(=O)CC12C` (stereo unspecified)?
ClpP mod: -0.7%; gsp antagonist: 11.5%; CtBP-E1A inh: 7.7; gsp agonist: 15.9%

What do the screens show for `CCN1CCN(S(=O)(=O)c2cnc(Cl)c(Br)c2)CC1`?
Sfp inh: 13.9%; ClpP mod: -0.9%; Menin MLL FP FL: 2.0; TRPV1 PAM: 0.9; gsp antagonist: 1.4%; CtBP-E1A inh: 2.5; gsp agonist: -55.7%[inhibitor]

What do the screens show for `NC(N)=N/N=C/c1ccc(N(c2ccccc2)c2ccccc2)cc1`?
Sfp inh: 39.8µM*; ClpP mod: 4.7%; Menin MLL FP FL: 2.8; TRPV1 PAM: 16.9; gsp antagonist: -0.8%; gsp agonist: inconclusive

How did O=C1C2CCCN2C(c2ccc(Cl)cc2)N1c1ccccn1 (stereo unspecified) do in these assays?
Sfp inh: 12.8%; ClpP mod: -3.1%; Menin MLL FP FL: -0.7; TRPV1 PAM: 24.3; gsp antagonist: -11.2%; CtBP-E1A inh: -1.6; gsp agonist: 3.8%

What do the screens show for `CCOc1cc(C2C(C#N)=C(N)Oc3c2c(=O)oc2ccccc32)ccc1OC(=O)c1cccs1` (stereo unspecified)?
Sfp inh: 50.1µM*; ClpP mod: -2.3%; Menin MLL FP FL: 3.4; TRPV1 PAM: 6.5; gsp antagonist: -21.4%; CtBP-E1A inh: -5.6; gsp agonist: -2.8%[15.4 µM]

Results for C[C@]12CCC3C(CC[C@H]4[C@H](O)[C@H](O)CC[C@]34C)C1CCC2=O (stereo partly specified) ?
gsp antagonist: -10.6%; CtBP-E1A inh: 9.1; gsp agonist: -13.1%

What do the screens show for `O=P(N[C@@H](c1ccccc1)[C@@H]1C[C@H]1CO)(c1ccccc1)c1ccccc1`?
Sfp inh: 6.2%&29.7%; ClpP mod: -2.5%; Menin MLL FP FL: 1.6&-0.9; TRPV1 PAM: 24.6; gsp antagonist: -0.5%; gsp agonist: 4.5%

How did Brc1ccc2[nH]cc(C=NN3CCCCCC3)c2c1 do in these assays?
ClpP mod: -2.9%; gsp antagonist: -4.6%; CtBP-E1A inh: -9.9; gsp agonist: -12.9%

How did C1CNC2NCCNC2N1 (stereo unspecified) do in these assays?
Sfp inh: -0.4%; ClpP mod: 0.7%; Menin MLL FP FL: 1.0; TRPV1 PAM: 25.6; gsp antagonist: 5.6%; CtBP-E1A inh: 4.6; gsp agonist: 8.7%[15.4 µM]

How did CC1CCc2c(sc3nc(CSc4n[nH]c(N)n4)[nH]c(=O)c23)C1 (stereo unspecified) do in these assays?
Sfp inh: 3.7%; ClpP mod: 55.0%; Menin MLL FP FL: 9.4; TRPV1 PAM: -8.6; gsp antagonist: -17.0%; CtBP-E1A inh: -4.9; gsp agonist: -1.7%

Results for O=C(O)Cc1cnc[nH]1 ?
Sfp inh: 50.1µM*; ClpP mod: -0.1%; Menin MLL FP FL: 1.5; gsp antagonist: -11.9%; CtBP-E1A inh: -2.9

What do the screens show for `CCCCC(C)C(OC(=O)CC(CC(=O)O)C(=O)O)C(CC(C)CC(O)CCCCC(O)CC(O)C(C)N)OC(=O)CC(CC(=O)O)C(=O)O` (stereo unspecified)?
Sfp inh: 1.3%; ClpP mod: -1.3%; Menin MLL FP FL: 3.7; TRPV1 PAM: -4.4; gsp antagonist: 10.0%; CtBP-E1A inh: 8.8

Results for O=C(CNC1CCCCC1)N1CCC2(CC1)OCCO2 ?
Sfp inh: -6.2%; ClpP mod: 0.2%; Menin MLL FP FL: -0.6; TRPV1 PAM: 0.4; gsp antagonist: 0.6%; CtBP-E1A inh: 6.5; gsp agonist: inconclusive

Results for CC1CN2C(=O)C1(c1ccccc1)C(=O)NC2=S (stereo unspecified) ?
ClpP mod: -1.2%; CtBP-E1A inh: 3.3; gsp agonist: -75.6%[inhibitor]

Results for O=P(C(Cl)Cl)(N1CCCCC1)N1CCCCC1 ?
Sfp inh: -1.6%; ClpP mod: -1.3%; Menin MLL FP FL: 0.5; TRPV1 PAM: 8.0; gsp antagonist: 4.9%; CtBP-E1A inh: 0.7; gsp agonist: -17.5%

What do the screens show for `Cc1cc(OCC(=O)N2CCN(CC(=O)N3CCOCC3)CC2)c(C(C)C)cc1Cl`?
ClpP mod: 2.6%; gsp antagonist: 2.7%; gsp agonist: 0.3%

How did COc1cc(C)c(-c2nc(CN3C[C@@H]4C[C@@H](C3)c3cccc(=O)n3C4)c(C)o2)cc1C do in these assays?
Sfp inh: -5.3%; Menin MLL FP FL: 1.4; TRPV1 PAM: -4.7; gsp antagonist: -26.3%; CtBP-E1A inh: -1.0; gsp agonist: -0.7%[15.4 µM]

Results for COC(=O)C1=C(c2cccc(OCc3ccccc3)c2)C[C@@H]2CC[C@H]1N2C(=O)NCc1cccc(C(F)(F)F)c1 ?
ClpP mod: 0.3%; TRPV1 PAM: -0.9; gsp antagonist: -9.6%; CtBP-E1A inh: -0.1; gsp agonist: 8.4%

Results for CCCCN1C(=O)NC(=O)/C(=C/c2cnc(SC)nc2)C1=O ?
Sfp inh: 25.1µM*; ClpP mod: -0.8%; Menin MLL FP FL: 17.2; TRPV1 PAM: -5.6; gsp antagonist: 2.8%[15.4 µM]; CtBP-E1A inh: 3.5; gsp agonist: inconclusive

What do the screens show for `CN(N=Cc1ccc([N+](=O)[O-])cc1)c1ccccn1`?
ClpP mod: -4.9%; CtBP-E1A inh: -5.0; gsp agonist: 19.7%

How did O=C(COc1ccccc1)c1cn(Cc2ccccc2)c2ccccc12 do in these assays?
Sfp inh: 2.8%; ClpP mod: -4.0%; Menin MLL FP FL: inconclusive; TRPV1 PAM: -0.2; gsp antagonist: -2.6%; CtBP-E1A inh: 26.6; gsp agonist: -8.5%

How did CNC1(c2ccccc2Cl)CCCCC1=O (stereo unspecified) do in these assays?
Sfp inh: 30.6%&10.8%; ClpP mod: 0.3%; Menin MLL FP FL: 6.0&0.5; gsp antagonist: 3.6%; CtBP-E1A inh: -0.8

How did Cc1ccc(-n2c(C)cc(/C=C3/C(=O)NC(=O)N(C)C3=O)c2C)cc1 do in these assays?
Sfp inh: -17.4%; ClpP mod: -0.5%; Menin MLL FP FL: 5.8; TRPV1 PAM: 2.9; gsp antagonist: 7.7%; gsp agonist: -49.7%[inhibitor]

Results for COc1c2c(cc3c1OCO3)CC[N+](C)=C2 ?
Sfp inh: 9.7%&-16.7%&7.7%; ClpP mod: -2.9%; Menin MLL FP FL: -7.9&-0.8&-0.7; TRPV1 PAM: -1.4; gsp antagonist: 2.0%; CtBP-E1A inh: 4.0; gsp agonist: -4.2%

How did Brc1ccccc1OCCCN1CCOCC1 do in these assays?
Sfp inh: -19.6%; ClpP mod: -1.1%; Menin MLL FP FL: -1.4; TRPV1 PAM: 1.9; gsp antagonist: 11.8%; CtBP-E1A inh: 7.1; gsp agonist: inconclusive

How did O=[N+]([O-])c1ccc(N2CCCC2)c2ncccc12 do in these assays?
Sfp inh: 10.5%; ClpP mod: -1.3%; Menin MLL FP FL: -30.0; TRPV1 PAM: -2.3; gsp antagonist: -8.6%; CtBP-E1A inh: -22.2; gsp agonist: -22.4%

Results for O=C1/C(=C\c2ccccc2)C2OCC=C3CN4CCC56c7ccccc7N1C5C2C3CC46 (stereo unspecified) ?
Sfp inh: 4.6%; ClpP mod: 0.5%; Menin MLL FP FL: -15.2; TRPV1 PAM: 3.5; gsp antagonist: 6.3%; gsp agonist: -7.6%

How did Cc1ncc(CNC(=O)N(CCCl)N=O)c(N)n1 do in these assays?
Sfp inh: -27.5%; ClpP mod: -2.8%; Menin MLL FP FL: 4.2&-1.5; TRPV1 PAM: -0.4; gsp antagonist: 3.7%; CtBP-E1A inh: -18.1

How did S=c1[nH]nc(-c2ccccc2)n1CC1CCCO1 (stereo unspecified) do in these assays?
Sfp inh: inconclusive; ClpP mod: -16.6%; Menin MLL FP FL: 1.4; TRPV1 PAM: -26.8; gsp antagonist: -3.0%; CtBP-E1A inh: 1.4; gsp agonist: 5.0%

Results for COc1ccc(-n2c(O)c(/C(C)=N/N3CCCCCC3)c(=O)[nH]c2=O)cc1 ?
Sfp inh: -0.7%; ClpP mod: 0.1%; Menin MLL FP FL: 5.8; TRPV1 PAM: -20.1; gsp antagonist: -17.8%; CtBP-E1A inh: 3.4; gsp agonist: 1.5%[15.4 µM]

Results for O=c1c2ccccc2nc(C[n+]2ccccc2)n1-c1cccc(C(F)(F)F)c1 ?
Sfp inh: 14.5%; Menin MLL FP FL: 2.2; TRPV1 PAM: -1.8; gsp antagonist: 11.7%; CtBP-E1A inh: 1.2; gsp agonist: 3.5%[15.4 µM]
